CDC25B CDK2 inh = human CDC25B-CDK2/CyclinA binding inhibition | hit rate 0.72% among 94,000 | z-score (concentration not given with the values) | HTRF CDC25B-CDK2/CyclinA binding, anti-His/anti-Flag; active compounds read high | AID 1259370 | P30305+P24941;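 also: score is relative to mean and SD of negative controls; strong numbers were not always called active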
TAR Tat displ = HIV-1 TAR-Tat binding disruption. HIV-1 TAR RNA, Tat peptide displacement FRET; active compounds read high. z-score (concentration not given with the values). hit rate 0.6% among 100,000. AID 1259389;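 also: score is relative to mean and SD of negative controls; some compounds called inactive have numbers as strong as hits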
Numbers without * were called inactive; x = no result given; & = joins results of further samples.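 The calls were made as follows: active = z-score from 3 up in half or more of its runs; inactive = the rest.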

no.	compound	CDC25B CDK2 inh	TAR Tat displ
1	COc1ccc(C2=Nn3c(COc4cc(C)ccc4Cl)nnc3SC2)cc1	-1.3	-0.97
2	CC(C)CCNC(=O)CCc1nnc2ccc(NCc3ccc4c(c3)OCO4)nn12	x	3.3
3	O=C(c1cnn2c(C(F)(F)F)cc(-c3ccccc3)nc12)N1CCOCC1	x	-0.01
4	COc1cccc(C(Nc2cc(C)ccn2)c2ccc3ccc(C)nc3c2O)c1 (centres undefined)	-0.01	1.8
5	CCOc1ccc(-c2nc3ncccn3c2NCc2ccc(F)cc2)cc1	x	0.01
6	COc1ccc(N2CCN(S(=O)(=O)c3cc(-c4noc(C5CC5)n4)cs3)CC2)cc1	x	0.85
7	CC(=O)N1CC(C)Sc2ccc(S(=O)(=O)NCc3ccc4c(c3)OCO4)cc21 (centres undefined)	x	-0.88
8	CCOC(=O)C(=CNc1ccc2c(c1)CCN2C(C)=O)C(=O)OCC	0.03	x
9	CCCNC(=O)c1oc2ccc3c(c2c1C)C(=O)CC(C)(C)O3	-2.5	0.19
10	CCOc1ccc(-c2nc(CN3N=NC4C(=O)N(c5ccc(C(C)C)cc5)C(=O)C43)c(C)o2)cc1 (centres undefined)	x	-1.3
11	Cc1cc(-c2ccc(C)c(S(=O)(=O)N3CCN(c4ccc(Cl)cc4)CC3)c2)on1	x	-0.2
12	Cc1ccc(C2CCCN2S(=O)(=O)c2cnc[nH]2)cc1 (centres undefined)	-1.6	0.78
13	COc1cc(C=Nc2ccc(S(=O)(=O)Nc3nc(C)cc(C)n3)cc2)cc(OC)c1OC	-1.4	x
14	COc1cccc(N2CCN(c3cnc4ccccc4n3)CC2)c1	x	0.71
15	O=c1c2ccccc2c(-c2ccccc2)nn1CCc1ccccc1	-0.91	-0.59
16	CCOC(=O)c1cn(CC(=O)NC(C)C)c2nc(C)ccc2c1=O	x	0.95
17	Cc1nc2scc(C)n2c(=O)c1S(=O)(=O)N1CCC(Cc2ccccc2)CC1	-3.6	0.98
18	CN(C)CCCCC(=O)Nc1ccc(NC(=S)NC(=O)c2ccc(C(C)(C)C)cc2)cc1	x	1
19	Cc1ccc(NC(=O)CSc2nn3c(=O)c(C(C)(C)C)nnc3s2)cc1	x	0.57
20	CCc1nn2c(=O)cc(COC(=O)COc3ccccc3Cl)nc2s1	x	-0.07
21	O=C(Cn1c(=O)oc2ccc(C(=O)N3CCCCC3)cc21)Nc1nccs1	x	1.7
22	CC(C)c1ccc(C(=O)CC2(O)C(=O)N(C)c3ccccc32)cc1 (centres undefined)	0.07	-0.32
23	O=[N+]([O-])c1cc(C(F)(F)F)cc([N+](=O)[O-])c1NCCCn1ccnc1	-1.9	x
24	COc1ccc(S(=O)(=O)N2CCc3cc4ccccc4nc32)c(C)c1	0.07	-2.2
25	Cc1ccccc1C1CC(c2ccccc2Cl)Nc2nc(N)nn21 (centres undefined)	-1.6	-0.3
26	COc1cc(C2C(C#N)=C(N)OC3=C2C(=O)CC(C)(C)C3)ccc1O (centres undefined)	-0.56	x
27	Cc1cc(=O)[nH]c(SCC(=O)N2CCCc3ccccc32)n1	-2.9	0.99
28	CN(C)CCN(Cc1ccccc1)S(=O)(=O)c1cc2c(cc1Cl)NC(=O)CO2	x	0.28
29	FC(F)(F)c1ccc(-c2nnc(-c3ccccn3)c(-c3ccccn3)n2)nc1	-0.58	x
30	O=C(Cn1cnc(S(=O)(=O)N2CCCC2)c1)N(CCc1ccccc1)Cc1ccccc1	x	0.66

Further results:
no.	compound	CDC25B CDK2 inh	TAR Tat displ
31	CCCCSc1nc2c(c(=O)n1CC1CCCCC1)C1(CCCCC1)Cc1ccccc1-2	-1.8	x
32	O=C(O)Cn1cc2c(n1)CCCCCC2	0.23	1.6
33	CC1CCCC(NC(=O)CCCn2c3ccccc3c3cn[nH]c(=O)c32)C1C (centres undefined)	-1.6	-1.5
34	COC(=O)C1C(=O)C2=C(CC1C)NC(C)=C(C(=O)OC1CCCC1)C2c1ccccc1C (centres undefined)	0.52	0.06
35	CC1=C(c2cccc(Br)c2)S(=O)(=O)NC1=NC1CCCC(C)C1C (centres undefined)	-11	0.89
36	COc1ccc(OC)c(-c2nc(C(N)=O)c3[nH]c(=O)n(-c4ccc(F)cc4)c3n2)c1	x	1.4
37	Cc1nn(S(C)(=O)=O)c(C)c1S(=O)(=O)N(C)c1ccccc1	x	0.93
38	O=C(Nc1nc(-c2ccccc2)cs1)c1ccc(S(=O)(=O)N2CCCCC2)cc1	-0.18	x
39	C[C@@H](N)C(=O)OCc1ccccc1	-2.3	x
40	Cn1c(=O)c2c(nc3n(-c4ccc(F)cc4)c(-c4ccc(Cl)cc4)cn23)n(C)c1=O	0.82	-0.34
41	O=C(CSc1ccc2nnc(-c3ccc(F)cc3)n2n1)N1CCOCC1	-0.99	x
42	NC(=O)C1CCN(C(=O)CN2C(=O)COc3ccc(C(=O)N4CCCC4)cc32)CC1	x	0.62
43	Cc1cccc(-c2nnn3c2nc(N2CCCC2)c2ccccc23)c1	-1	0.04
44	Cc1n[nH]c(=O)c2c1nnn2Cc1ccc(F)cc1	-1.7&-0.55	1.6&0.01
45	CC(C)(C)c1ccc(-c2nnc(SCC(=O)O)n2Cc2ccccc2)cc1	-1.2	0.09
46	Oc1ccc(O)c(Sc2nnnn2-c2ccccc2)c1	-0.77	-2
47	COc1cc(C2CC(=O)Nc3cc4c(cc32)OCCO4)cc(Br)c1OC (centres undefined)	-2.8	x
48	CCOC(=O)c1cc(S(=O)(=O)N2CCN(C(=O)OCC)CC2)cn1C	-1.5	1
49	c1ccc(C(CCNc2ncnc3nc[nH]c23)c2ccccc2)cc1	-0.43	0.49
50	CS(=O)(=O)N1CCN(CCCc2ccccc2)CC1	-0.99	1
51	NC(=S)NN=C1C2CC3CC(C2)CC1C3	-1.5	x
52	CC(=O)N1CCc2cc(S(=O)(=O)C(C)CC(=O)NCc3ccc4c(c3)OCO4)ccc21 (centres undefined)	x	1.2
53	CCCn1nc(C)c2c(C(F)(F)F)cc(=O)[nH]c21	x	1.4
54	CCOC(=O)C1CCN([C@H]2CS(=O)(=O)C[C@@H]2S(=O)(=O)c2ccccc2)CC1	0.41	0.27
55	O=C(O)CCCCCn1c(=S)[nH]c2ccc(Br)cc2c1=O	-1.6	x
56	COc1cccc(-n2c(=O)c3c(C)c(C)sc3n(Cc3cc(=O)n4cc(Cl)ccc4n3)c2=O)c1	-0.68	x
57	Cc1nn(CC(=O)NCC(C)c2ccccc2)c(=O)c2cc3occc3n12 (centres undefined)	-0.64	0.95
58	O=C(CC1OC(=O)c2ccccc21)c1ccccn1 (centres undefined)	0.04	x
59	CC1CCN(c2ccc3nnc(-c4ccc(F)cc4)n3n2)CC1	-0.97	x
60	CCOc1ccc(Nc2ncnc3c2cnn3C)cc1	x	1.4

Next entries:
no.	compound	CDC25B CDK2 inh	TAR Tat displ
61	O=C(NCCCc1ccccc1)c1ccc2oc(=O)n(Cc3ccccc3)c2c1	x	1.2
62	COCc1nc2ccccc2n1CCOc1cccc2ccccc12	0.35	1
63	CS(=O)(=O)N(Cc1ccccc1)c1ccc(C(=O)NCCSc2ccccn2)cc1	0.62	x
64	CC1CCN(c2ncnc3c2nnn3C)CC1	x	0.58
65	CN(C)CCCNCC(O)Cn1c2ccc(Cl)cc2c2cc(Cl)ccc21 (centres undefined)	-1.4	2
66	CC(C)CC(C(=O)Nc1ccccc1F)N1Cc2ccccc2C1=O (centres undefined)	x	-0.69
67	Cc1c(Cl)c([N+](=O)[O-])nn1CC(=O)Nc1c(F)cc(F)cc1Br	-1.6	1.1
68	O=S(=O)(c1ccccc1)c1cnc2cc3c(cc2c1N1CCCC1)OCCO3	-1.5	0.44
69	O=C(Cn1ncc2c1-c1ccccc1OC2)N1CCN(C2CCCCC2)CC1	-0.53	-0.36
70	Cc1cn2c(=O)cc(CSCc3ccccc3)nc2s1	-1.9	2.5
71	CCc1nonc1NC(=O)c1oc2cc(C)c(C)cc2c1C	-0.88	1.3
72	CCCCCCCCCCCCCCCCCCOCC(O)CO (centres undefined)	x	1.5
73	C=C(c1ccc(C(=O)O)cc1)c1cc2c(cc1C)C(C)(C)CCC2(C)C	-2.7	x
74	Cc1ccc2nc3c(cc2c1)CCN3C(=O)c1ccc(S(=O)(=O)N2CCOCC2)cc1	-1.6	-1.5
75	COc1cc(OC)cc(-c2nc(Cn3nnc4ccccc4c3=O)no2)c1	x	0.75
76	Cc1ccc2nc(Nc3nc(C)c(Cc4ccccc4)c(=O)[nH]3)nc(C)c2c1	0.84	0.21
77	C#CCN1C(=O)C(O)(CC(=O)c2ccc(OC)c(OC)c2)c2cc(Br)ccc21 (centres undefined)	-1.1	x
78	Cc1nc2sccn2c(=O)c1NC(=O)c1ccc(Br)cc1	x	2.5
79	CCCCOc1cc(=O)[nH]c(=O)[nH]1	-4	2.3
80	O=C(CSc1nc2c(c(=O)[nH]1)CCCC2)N(Cc1ccccc1)Cc1ccccc1	-1.5	2.8
81	CCOC(=O)c1nc(NC(C)CC)c2c(C)noc2n1 (centres undefined)	x	0.24
82	CCN(CC)CCNC(=O)C1Cc2ccccc2N1C(C)=O (centres undefined)	x	1
83	CC1CCc2c(sc(NC(=O)CSc3nc4ccccc4o3)c2C#N)C1 (centres undefined)	-2.5	x
84	O=C(OCn1nnc2ccccc2c1=O)c1cc2ccccc2oc1=O	-1.4	x
85	CC(=O)Nc1ccc(S(=O)(=O)[C@H]2CS(=O)(=O)C[C@@H]2NCCC(C)C)cc1	-2.2	1.4
86	O=C(O)CSc1nc(SCC(=O)O)c2ccccc2n1	1.1	-1.6
87	COc1cc(OC)cc(-n2nnc(-c3nc(-c4ccccc4C)no3)c2N)c1	x	-0.27
88	O=C(Nc1ccc2nsnc2c1)c1ccccc1N1CCOCC1	-0.3	x
89	COc1ccccc1/C=C/c1nn2c(C)nnc2s1	-0.11	0.13
90	CC(=O)N1c2ccc(S(=O)(=O)N3CCOCC3)cc2CC1C(=O)N1CCN(C)CC1 (centres undefined)	x	1.4

Reprinted from the part before: 3 compounds, then new ones.
no.	compound	CDC25B CDK2 inh	TAR Tat displ
88	O=C(Nc1ccc2nsnc2c1)c1ccccc1N1CCOCC1	-0.3	x
89	COc1ccccc1/C=C/c1nn2c(C)nnc2s1	-0.11	0.13
90	CC(=O)N1c2ccc(S(=O)(=O)N3CCOCC3)cc2CC1C(=O)N1CCN(C)CC1 (centres undefined)	x	1.4
91	CCCCn1c(SCc2nc(-c3ccccc3)no2)nc2cc3c(cc2c1=O)OCO3	x	2.1
92	CCc1cc(C(=O)Nc2c(F)cc(F)cc2Br)no1	-0.31	1.4
93	CCn1nc(C)c(CCNC(=O)Nc2ccc(Br)cc2F)c1C	x	1.1
94	CCc1nc2nc(C)c(Cc3cccc(Cl)c3)c(=O)n2[nH]1	-0.12	1.9
95	COc1ccc(S(=O)(=O)N2CCN(c3ccccc3)CC2)c2ccccc12	-2.3	3.1
96	COc1ccc(OCC(O)CNS(=O)(=O)c2ccc(NC(C)=O)cc2)cc1 (centres undefined)	-2.3	x
97	COc1ccc(OC)c(-c2noc(Nc3ccccc3F)n2)c1	x	0.37
98	COc1ccc(OCCSc2nc3ccccc3o2)cc1	1.1	-1.4
99	Cc1ccc(CNS(=O)(=O)c2cc3[nH]c4c(c3cc2C)C(=O)CC(C)(C)C4)cc1	x	0.55
100	CCN(Cc1ccc(F)cc1)c1cc(=O)n2nc(-c3ccccc3)sc2n1	x	0.76
101	O=S(=O)(Nc1[nH]ncc1Br)c1ccc(Cl)s1	-1.3	x
102	CCN(CC)CCNC(=O)c1sc2ncnc(N3CCCCC3C)c2c1C (centres undefined)	-2.8	x
103	Cc1nc2c3c4c(sc3ncn2n1)CC(C(C)(C)C)CC4 (centres undefined)	0.44	x
104	O=C(CC1NCCNC1=O)Nc1ccc2c(c1)OCCO2 (centres undefined)	-0.03	x
105	O=C(CSc1ccc(-c2cccs2)nn1)N1CCN(c2ccccc2)CC1	x	-9.6
106	Cn1[nH]c(C(F)(F)F)cc1=O	-2.8	x
107	O=C(Oc1ccc(-c2noc(-c3ccc(OC(=O)c4ccncc4)cc3)n2)cc1)c1ccncc1	x	-2.1
108	Oc1ccccc1-c1nc2c3ccccc3nc(=S)n2[nH]1	-3.1	x
109	CCc1cc2c(=O)[nH]c(CS(=O)(=O)c3ccc(C)cc3)nc2s1	-0.16	-3.5
110	CCOC(=O)N1CCC(NC(=O)C2CCCN(c3nn4c(=O)cc(C)nc4s3)C2)CC1 (centres undefined)	-0.12	1.8
111	c1ccc(CSc2ccc(-c3cccs3)nn2)cc1	x	1.3
112	O=C(Nc1ncc([N+](=O)[O-])s1)c1csnn1	-0.96	1.6
113	O=C(Nc1cnc2sc3cc(F)ccc3n2c1=O)c1ccc(Cl)cc1	-0.34	-0.58
114	O=S1(=O)N=CNc2ccc(S(=O)(=O)N3CCN(c4ccc(F)cc4)CC3)cc21	x	0.08

Reprinted at random: five entries already listed.
no.	compound	CDC25B CDK2 inh	TAR Tat displ
106	Cn1[nH]c(C(F)(F)F)cc1=O	-2.8	x
108	Oc1ccccc1-c1nc2c3ccccc3nc(=S)n2[nH]1	-3.1	x
109	CCc1cc2c(=O)[nH]c(CS(=O)(=O)c3ccc(C)cc3)nc2s1	-0.16	-3.5
100	CCN(Cc1ccc(F)cc1)c1cc(=O)n2nc(-c3ccccc3)sc2n1	x	0.76
98	COc1ccc(OCCSc2nc3ccccc3o2)cc1	1.1	-1.4
